Compound activity (PubChem BioAssay)
RecA intein inh: Mtb RecA intein splicing inhibitors, primary screen, biochemical, fluorescence, HTS | Protein RecA (Mycobacterium tuberculosis (strain ATCC 25618 / H37Rv)), P9WHJ3 | cell-free RecA intein splicing | inhibition, %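 (about 9 µM by stock and volumes)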 | 290,000 compounds, 0.75% hits; in the data active = inhibition above about 30%; inconclusive = no clear call, values can overlap the other calls;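 note: 0% = vehicle wells and 100% = reference inhibitor control wells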
Target sequence (P9WHJ3 whole entry, looked up): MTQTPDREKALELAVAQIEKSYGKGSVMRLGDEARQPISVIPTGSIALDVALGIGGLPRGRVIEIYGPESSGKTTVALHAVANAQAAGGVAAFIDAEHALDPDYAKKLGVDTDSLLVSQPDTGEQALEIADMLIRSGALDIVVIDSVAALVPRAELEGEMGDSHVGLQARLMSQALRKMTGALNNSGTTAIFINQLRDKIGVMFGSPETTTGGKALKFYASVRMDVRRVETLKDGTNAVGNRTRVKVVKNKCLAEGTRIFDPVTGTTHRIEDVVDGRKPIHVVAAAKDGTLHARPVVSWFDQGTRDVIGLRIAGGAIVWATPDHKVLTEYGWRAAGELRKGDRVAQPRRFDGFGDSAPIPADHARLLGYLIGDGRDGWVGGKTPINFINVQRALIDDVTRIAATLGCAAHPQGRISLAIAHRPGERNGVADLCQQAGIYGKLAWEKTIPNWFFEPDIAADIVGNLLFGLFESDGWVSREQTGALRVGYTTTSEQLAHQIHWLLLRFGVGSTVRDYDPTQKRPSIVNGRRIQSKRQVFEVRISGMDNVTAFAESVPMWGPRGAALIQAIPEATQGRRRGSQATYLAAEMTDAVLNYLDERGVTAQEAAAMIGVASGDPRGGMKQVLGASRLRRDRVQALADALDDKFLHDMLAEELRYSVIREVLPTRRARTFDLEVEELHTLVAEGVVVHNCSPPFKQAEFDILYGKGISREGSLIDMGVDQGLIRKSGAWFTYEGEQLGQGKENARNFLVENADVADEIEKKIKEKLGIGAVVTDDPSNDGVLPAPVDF
Mtb growth: M. tuberculosis H37Rv growth inhibitors, H37Rv strain (AID 1626) | M. tuberculosis H37Rv growth inhibition; higher % means a stronger effect | inhibition, % at 10 µM, or IC50 in µM where a hit was titrated | 220,000 compounds, 0.95% hits;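 active = confirmed in a dose series; inconclusive = inhibition above 80% but not taken into the dose series; inactive = below 80% or under 30% at every dose of the series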;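 note: bacteria incubated seven days before Alamar blue readout; 0% = bacteria only wells and 100% = bacteria with antibiotic wells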
YopH PTP inh: YopH tyrosine phosphatase inhibitors, primary screen, biochemical, fluorescence Ex485/Em525; YopH tyrosine phosphatase [Yersinia enterocolitica]; inhibition, %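 (about 10 µM by stock and volumes)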; 140,000 compounds, 0.16% hits; AID 898, 2007;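 active = inhibition of 50% or more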;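 note: controls were vehicle for no effect and minimum signal wells for full effect; inactives centre near -20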
Mtb betalactam: beta-lactam sensitization of Mtb H37Rv, H37Rv; M. tuberculosis H37Rv growth with meropenem, percent inhibition; hits of this screen are not shown here; inhibition, % at 25 µM; 330,000 compounds, 0.27% hits;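 active = about 74% or more and at least 40 points above the plate without the antibiotic, then above 30% in a dose series; inconclusive = first-round hits that could not be retested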;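 note: growth measured after seven days incubation then overnight dye step; 0% = bacteria only wells and 100% = bacteria with antibiotic; twin plates without the antibiotic show which effects depend on it; some results filed as inactive read as strong as hits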
Arbovirus inh: antivirals against arbovirus infection, primary screen, cell-based, full library, 10K replicate subset | arbovirus infection cell-based antiviral screen | inhibition, % at 10 µM | 200,000 compounds, 0.37% hits | AID 1251, 2008;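 active = inhibition from about 30%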;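 note: bluetongue infection of BSR cells; cell survival read as ATP light after 72 h; 0% = infected wells without compound and 100% = uninfected wells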
Arbovirus inh repeat: further read-out of Arbovirus inh, marked with its call; inhibition, %; measured here: 10K subset replicate screen; many hits read low in the repeat;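 first of two repeat runs on a subset; 0% = infected and 100% = uninfected wells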
Active calls of the source: *; u = inconclusive; x = not tested or not shown.

SMILES	RecA intein inh	Mtb growth	YopH PTP inh	Mtb betalactam	Arbovirus inh	others
Cc1noc(C(=O)N2CCN(c3ccccc3)CC2)c1Cl	-9.8	x	x	-7	x
O=C(O)c1cc(-c2ccc3c(c2)OCO3)nc2ccccc12	-1.9	-7%	-31	0	3
Cc1cc(OCCCC(=O)NC2=NCCS2)ccc1Cl	-1.4	-11%	11	4	-2
Cc1c(CCC(=O)O)c(=O)oc2cc3oc4c(c3cc12)CCCC4	-3.8	1%	x	2	x
CCc1cc2c(=O)n(CC)c(SC(C)C(=O)Nc3c(C)n(C)n(-c4ccccc4)c3=O)nc2s1 (stereo unspecified)	0.8	-7%	-1	-8	0
Cc1c(C(=O)Nc2cccc3cccnc23)oc2ccccc12	-3.6	-2%	-56	10	-9
CCCN1C(=O)c2ccc(C(=O)Nc3cc(C)ccc3O)cc2C1=O	-1.9	x	x	9	x
COc1cccc2c(=O)n(CC(=O)Nc3ccccc3)ccc12	0.5	0%	-49	0	5
CCN(CC(=O)Nc1cc(Cl)ccc1C)C(=O)CN1C(=O)NC2(CCCC2)C1=O	1.0	x	x	-1	x
Cc1ccc(S(=O)(=O)NCC(=O)OC(C)C(=O)c2ccccc2)cc1 (stereo unspecified)	-0.3	x	x	-8	x
Cc1c(NC(=O)COC(=O)C2(c3ccc(F)cc3)CCCC2)c(=O)n(-c2ccccc2)n1C	-0.3	6%	x	7	2
O=c1[nH]ncn1-c1cccc(C(F)(F)F)c1	-7.4	-5%	-14	-7	2
COC(=O)Cc1c(C)c2ccc(OCC(=O)N(C)C3CCS(=O)(=O)C3)cc2oc1=O (stereo unspecified)	-1.1	x	x	-6	x
COC(=O)CSc1nsc(SCC(=O)OC)c1C#N	1.1	5%	-138	-3	6
COc1cc([N+](=O)[O-])ccc1NC(=O)CCCOc1cccc(C)c1C	-0.9	1%	-1	8	17

2 records picked at random from those above:
SMILES	RecA intein inh	Mtb growth	YopH PTP inh	Mtb betalactam	Arbovirus inh	others
CCCN1C(=O)c2ccc(C(=O)Nc3cc(C)ccc3O)cc2C1=O	-1.9	x	x	9	x
COC(=O)Cc1c(C)c2ccc(OCC(=O)N(C)C3CCS(=O)(=O)C3)cc2oc1=O (stereo unspecified)	-1.1	x	x	-6	x

Other structures
SMILES	RecA intein inh	Mtb growth	YopH PTP inh	Mtb betalactam	Arbovirus inh	others
COc1cc(/C=N/Nc2cc(C)nc(NS(=O)(=O)c3ccccc3)n2)ccc1O	-4.5	x	x	0	x
O=C(Nc1ccc(Cc2ccncc2)cc1)c1ccc(N2CCOCC2)c([N+](=O)[O-])c1	3.6	-4%	x	-1	-19
CC1CC(C)CN(S(=O)(=O)c2cc3c(cc2Cl)NC(=O)CO3)C1 (stereo unspecified)	-0.2	x	x	-3	x
O=C(NC1CCCC1)C1CCN(C(=O)c2ccccc2Cl)CC1	-1.9	x	x	4	x
CC1CN(S(=O)(=O)c2ccc(C(=O)Nc3nnc(-c4ccccn4)o3)cc2)CC(C)O1 (stereo unspecified)	-0.8	-1%	x	-3	4
CN(Cc1ccccc1F)C(=O)c1ccc(Oc2ccccc2)cc1	15	x	x	4	x
O=C(CCCCCn1c(=S)[nH]c2cc3c(cc2c1=O)OCO3)N1CCN(C(=O)c2ccco2)CC1	-5.8	-8%	-36	10	-7
Fc1ccc(CN2CCC(Cc3ccccc3)CC2)cc1F	-0.8	x	x	-6	x
CCn1c(Cc2c(C)[nH]c3ccccc23)nnc1SCC(=O)NCc1ccccc1	-3.7	-5%	5	4	8
COc1ccccc1C(=O)Nc1nnc(S(=O)(=O)N2CCN(c3ccc(F)cc3)CC2)s1	2.6	x	x	-5	x
C[C@H](C(=O)CC(=O)OC(C)(C)C)[C@H](O)c1ccc(C(F)(F)F)cc1	0.9	x	x	-8	x
CCOC(=O)C1=C(C)N(C)C(C)=C(C(=O)OCC)C1c1ccccn1	-2.7	-5%	-10	-5	6	Arbovirus inh repeat=4
CCN(CC)CCNC(=O)c1cc2c(-c3cccc(OC)c3)nn(C)c2s1	-3.2	x	x	-1	x
Cn1cnc2c1c(=O)n(Cc1cccc(Cl)c1)c(=O)n2C	1.2	x	x	-4	x
O=C(CN1C(=O)c2ccccc2C1=O)Nc1ccc2c(c1)OCO2	-0.9	1%	-22	-11	-2
Cc1cc(Cl)ccc1C(=O)C1CCCN(C(=O)CCn2cncn2)C1 (stereo unspecified)	0.6	x	x	-5	x
c1ccc(CNc2nc(-c3cccnc3)nc3ccccc23)cc1	8.7	x	x	7	x
Cc1ccc(-c2[nH]nc(N)c2N=Nc2ccccc2C)cc1	5.8	5.4µM*	-11	100	-36
O=C(CN1CCN(c2ccc(Cl)cc2)CC1)NCc1cccs1	-0.1	-2%	x	-4	0
COc1ccc(C(=O)NCC(=O)N/N=C/C=C/c2ccccc2)cc1OC	0.9	-4%	x	7	-4
Cc1noc(C)c1C(=O)OC(C)C(=O)Nc1ccc(S(=O)(=O)NC(C)C)cc1 (stereo unspecified)	-0.9	3%	-26	0	1
COc1ccccc1/C=N/NC(=O)CNC(=O)c1ccc(S(=O)(=O)N(C)C)cc1	-3.0	-4%	x	-6	11
C/C(=N\NC(N)=O)c1ccc(Cl)cc1	2.3	x	3	0	0
Cc1ccc(N/N=C/c2c(O)n(-c3ccccc3)c(=O)[nH]c2=O)cc1	-2.2	69%	x	86	-37
O=C(Cn1ccc2ccccc2c1=O)NCCC(=O)NC1CCN(Cc2ccccc2)CC1	-0.1	-3%	-11	-6	4
O=C(Nc1ccccc1)/C(=C/c1cccnc1)NC(=O)c1ccccc1	-0.7	x	x	0	x
O=C(C1=C[C@@H](C2CC2)C[C@@H](OCCCCO)O1)N1CCN(Cc2ccccc2)CC1	-0.8	x	x	-4	2
O=C(CNC(=O)c1ccc(N2C(=O)c3ccccc3C2=O)cc1)OCC(=O)c1ccccc1	-1.3	-2%	-24	-7	4
O=S(=O)(Nc1ncccn1)c1cc(Cl)ccc1Cl	-0.6	x	x	3	x
N#Cc1ccccc1Cn1c(=O)n(CCC(=O)NCc2ccco2)c(=O)c2ccccc21	-2.1	-3%	-26	3	6
O=C(c1ccc(Cl)cc1)C1CCCN(Cc2cccc3cccnc23)C1 (stereo unspecified)	-2.1	-8%	x	6	-8
Cc1cccc(OCCC(=O)Nc2ccc(C)c(S(=O)(=O)N3CCCCC3)c2)c1	6.9	5%	-10	-1	-8
Cn1c(-c2ccc(-c3ccccc3)cc2)c[nH]c1=S	-0.7	-3%	20	0	-13
O=C(Nc1ccccc1Cl)c1cc[n+](Cc2ccc([N+](=O)[O-])cc2)cc1	2.2	-3%	x	-2	-4
O=C(/C=C\c1ccc2c(c1)OCO2)NC1(C(=O)Nc2ccc3c(c2)OCCO3)CCCCC1	-9.1	-1%	3	u	-6
O=C(O)C1CCCN1C(=O)Nc1ccccc1 (stereo unspecified)	-1.5	1%	-49	2	-1
CCC1CCCN1Cn1cnc2c([nH]c3ccc(OC)cc32)c1=O (stereo unspecified)	1.3	-13%	-25	-10	11
Cc1ccc(CN2C(=O)N/C(=C\c3ccc(N4CCOCC4)cc3)C2=O)cc1	-1.3	-13%	-27	-3	-8
CN(C)C1(CNC(=O)C2CCN(S(=O)(=O)c3cccc(C(F)(F)F)c3)CC2)CCCCC1	0.0	x	x	-7	x
CCOC(=O)c1sc(N=Nc2c(O)[nH]c(=O)[nH]c2=O)c(C(=O)OCC)c1C	0.8	10%	-5	0	-8
CCN(CC)C(=O)C(=O)c1cccn1-c1cccc(Cl)c1C#N	-1.1	-4%	-23	-1	2
COc1ccc(CC(C)CC(=O)Nc2ccc(OC)cc2)cc1 (stereo unspecified)	-2.0	x	x	4	x
O=C(N/N=C/c1ccc(N2CCOCC2)s1)c1ccccc1Cl	-1.8	-6%	x	-2	4
N#Cc1c(Nc2ccc(F)cc2)sc(C(=O)c2ccccc2)c1N	2.4	10%	-15	1	-2
CC1CCc2nc(NC(=O)CN3CCOCC3)sc2C1 (stereo unspecified)	2.8	23%	-41	8	10
COc1ccc(CNC(=O)C(c2ccncc2)N(C(=O)Cc2cccs2)c2ccccc2)cc1 (stereo unspecified)	x	5%	-29	x	-5
Cc1cc(=O)oc2cc(OCC(=O)Nc3cccc(S(=O)(=O)N(C)C)c3)ccc12	-1.2	4%	-14	5	4
CCOCCCNC(=O)c1ccc(N2CCCC2)c(NS(=O)(=O)c2ccc(C)cc2)c1	-8.7	2%	x	1	-8
CCC(CC)c1nnc(NC(=O)c2ccco2)s1	2.0	-8%	x	0	0
CCOC(=O)c1ccc(NC(=O)Nc2ccccn2)cc1	9.5	-6%	x	5	-7
COc1cccc(CCNC(=O)c2ccc(C#N)cc2)c1	0.0	6%	x	3	8
Cc1ccc2nc(N(CCN(C)C)C(=O)/C=C/c3cccs3)sc2c1	-4.1	3%	-28	2	-1
COCCSc1nnc(NC(=O)C2CC(=O)N(c3ccc(C)cc3)C2)s1 (stereo unspecified)	-2.8	0%	x	0	5
CCC(CC)COC(=O)C(C#N)c1nc2ccccc2nc1N1CCOCC1 (stereo unspecified)	-1.0	3%	-38	19	-7
Cc1cc(NC(=O)C(C)SCC(=O)Nc2ccc(Br)cc2Br)no1 (stereo unspecified)	3.7	x	x	-1	x
Cc1nnn(C23CC4CC(CC(CC(=O)Nc5cccc(F)c5)(C4)C2)C3)n1	-0.2	6%	x	0	1
Cc1c(NC(=O)c2cc(-c3ccco3)on2)c(=O)n(-c2ccccc2)n1C	-5.3	-2%	3	u	6
O=C(/C=C/c1ccccc1Cl)NC1CCCCC1	2.2	x	x	0	x
COc1ccccc1CNC(=O)[C@H](C)NC(=O)C1CCN(C(=O)[C@@H](N)CC(C)C)CC1	14	x	x	4	x
O=C(O)CCCCNS(=O)(=O)/C=C/c1ccccc1	-0.9	1%	x	-9	8
CCN(C(=O)c1cc2cccc(OC)c2oc1=O)c1ccccc1	0.0	-1%	-38	-2	-5
CCN(CC)CC(=O)Nc1sc(C)cc1C(=O)c1ccccc1	-0.6	x	x	11	x

In the list so far, 13 have an aryl methoxy group:
SMILES	RecA intein inh	Mtb growth	YopH PTP inh	Mtb betalactam	Arbovirus inh	others
COc1cccc2c(=O)n(CC(=O)Nc3ccccc3)ccc12	0.5	0%	-49	0	5
COc1cc([N+](=O)[O-])ccc1NC(=O)CCCOc1cccc(C)c1C	-0.9	1%	-1	8	17
COc1cc(/C=N/Nc2cc(C)nc(NS(=O)(=O)c3ccccc3)n2)ccc1O	-4.5	x	x	0	x
COc1ccccc1C(=O)Nc1nnc(S(=O)(=O)N2CCN(c3ccc(F)cc3)CC2)s1	2.6	x	x	-5	x
CCN(CC)CCNC(=O)c1cc2c(-c3cccc(OC)c3)nn(C)c2s1	-3.2	x	x	-1	x
COc1ccc(C(=O)NCC(=O)N/N=C/C=C/c2ccccc2)cc1OC	0.9	-4%	x	7	-4
COc1ccccc1/C=N/NC(=O)CNC(=O)c1ccc(S(=O)(=O)N(C)C)cc1	-3.0	-4%	x	-6	11
CCC1CCCN1Cn1cnc2c([nH]c3ccc(OC)cc32)c1=O (stereo unspecified)	1.3	-13%	-25	-10	11
COc1ccc(CC(C)CC(=O)Nc2ccc(OC)cc2)cc1 (stereo unspecified)	-2.0	x	x	4	x
COc1ccc(CNC(=O)C(c2ccncc2)N(C(=O)Cc2cccs2)c2ccccc2)cc1 (stereo unspecified)	x	5%	-29	x	-5
COc1cccc(CCNC(=O)c2ccc(C#N)cc2)c1	0.0	6%	x	3	8
COc1ccccc1CNC(=O)[C@H](C)NC(=O)C1CCN(C(=O)[C@@H](N)CC(C)C)CC1	14	x	x	4	x
CCN(C(=O)c1cc2cccc(OC)c2oc1=O)c1ccccc1	0.0	-1%	-38	-2	-5

Only part of the results is shown (hit frequency here may not be typical).
